Screening data: PubChem, several laboratories
WNV protease inh = WNV NS2B-NS3 proteinase inhibition; WNV NS2B-NS3 protease, fluorogenic substrate Ex360/Em465; hits give low values; z-score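 (tested at a level between 10 and 100 µM)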; 65,000 compounds, 0.18% hits; AID 577;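 active means z-score at -3 or under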;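 further: score is relative to mean and spread of the compound wells of a plate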
Target sequence (P06935 1371-1501 limits assumed): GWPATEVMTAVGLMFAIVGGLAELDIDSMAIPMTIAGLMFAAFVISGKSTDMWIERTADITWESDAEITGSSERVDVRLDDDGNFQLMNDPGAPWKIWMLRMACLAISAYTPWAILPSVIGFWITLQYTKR
Target sequence (P06935 1502-1679 limits assumed): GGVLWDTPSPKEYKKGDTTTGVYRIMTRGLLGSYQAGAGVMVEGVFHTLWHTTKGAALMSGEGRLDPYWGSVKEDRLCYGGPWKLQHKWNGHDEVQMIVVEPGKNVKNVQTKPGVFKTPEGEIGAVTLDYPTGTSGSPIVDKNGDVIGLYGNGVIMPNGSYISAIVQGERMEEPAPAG
MT1-MMP promoter = inhibitors of MT1-MMP promoter transcription, cell-based, luciferase reporter, luminescence (AID 618); MT1-MMP promoter luciferase reporter cells, luminescence; calls from a first round at 10 µM; hits with a dose series show EC50 in µM; 87,000 compounds, 0.62% hits;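 active means over half of the reporter light lost at 10 µM or EC50 under 50 µM; inactive means the rest and hits that failed the dose series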;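 further: actives suppress MT1-MMP promoter-driven transcription so potencies describe inhibitors; HT1080 fibrosarcoma cells; overnight exposure; toxic or luciferase-blocking compounds were not removed from the actives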
Hsc70 ATP site = Hsc70 inhibitors, probe displacement, primary screen, biochemical, fluorescence polarization (AID 568); Hsc70 fluorescence polarization, probe displacement; higher % means a stronger effect; strong numbers were not always called active; displacement, % at 20 µM; hits with a dose series show IC50 in µM; 83,000 tested, under 10 active;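 active means displacement above 50% without optical interference and an IC50 on retest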;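 further: ATPase domain with a fluorescein-tagged ATP probe; 0% = vehicle and 100% = excess ADP; read after one hour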
Numbers without * were called inactive; i = inactive; x = not tested or not shown.

Sample of the layout:
structure	WNV protease inh	MT1-MMP promoter	Hsc70 ATP site
COC(=O)c1ccc(C)c(NS(=O)(=O)c2ccc3c(c2)OCCO3)c1	-1	i	-4.6%
COCCN1Cc2cccc(C(=O)Nc3ccc(S(=O)(=O)N4CCCCCC4)cc3)c2C1=O	-1.3	i	-1.8%
COCCCNC(=O)c1ccccc1NS(C)(=O)=O	0.48	i	-3.6%
COc1ccc(C(=O)CSc2nnc(COc3ccc(C#N)cc3)n2-c2ccccc2)cc1	-0.16	i	1.1%
Cc1cc(=O)oc2c(CN3CCCCC3)c(O)c(Cl)cc12	9.8	i	3.2%
Cc1cccc(N2CCN(C(=O)c3cc4c(=O)n(C)c5ccccc5c4n3C)CC2)c1C	-0.77	i	2.9%

Results, from the first entry:
structure	WNV protease inh	MT1-MMP promoter	Hsc70 ATP site
COC(=O)c1ccc(C)c(NS(=O)(=O)c2ccc3c(c2)OCCO3)c1	-1	i	-4.6%
COCCN1Cc2cccc(C(=O)Nc3ccc(S(=O)(=O)N4CCCCCC4)cc3)c2C1=O	-1.3	i	-1.8%
COCCCNC(=O)c1ccccc1NS(C)(=O)=O	0.48	i	-3.6%
COc1ccc(C(=O)CSc2nnc(COc3ccc(C#N)cc3)n2-c2ccccc2)cc1	-0.16	i	1.1%
Cc1cc(=O)oc2c(CN3CCCCC3)c(O)c(Cl)cc12	9.8	i	3.2%
Cc1cccc(N2CCN(C(=O)c3cc4c(=O)n(C)c5ccccc5c4n3C)CC2)c1C	-0.77	i	2.9%
O=C(NCc1ccc(N2CCCC2=O)cc1)c1cnccn1	-0.27	i	-2.9%
Cc1ccc(OCC(O)CN2C(=O)NC(C)(C)C2=O)cc1 (centres undefined)	x	i	-2.5%
CC(=O)Oc1ccc2c(c1)c(C(C)=O)c(C)n2C	0.42	i	-0.5%
CCn1c(-c2cccc(Cl)c2)n[nH]c1=S	0.25	i	6.0%
CC1CCCCN1Cc1nc2c(c(=O)n(C)c(=O)n2C)n1Cc1c(F)cccc1Cl (centres undefined)	-0.33	i	-2.0%
CCC(=O)Nc1ccc2oc(-c3ccccc3Br)nc2c1	0.89	i	-1.7%
CC(=O)c1c(C(C)=O)c(C)n(-c2ccc(C(=O)O)cc2)c1C	-1.3	i	-3.6%
COc1ccc(-c2c3c(=O)n(C)c(=O)n(C)c3cn2Cc2ccccn2)cc1	-0.19	i	2.9%
Cc1ccc(-c2c(C)c(-c3ccc(F)cc3)nc(N)c2C#N)o1	1	i	-3.6%
Cc1nc(SCC(=O)Nc2ccc(N3CCOCC3)cc2)nc(C)c1C	x	i	2.5%
CCn1c(SCCC(=O)O)nnc1-c1cccnc1	-0.4	i	0.1%
COCCNC(=O)C1CCCN(c2nn3c(=O)cc(C)nc3s2)C1 (centres undefined)	-1.1	i	0.8%
C/C(Cl)=C/Cn1c(SCC(C)C)nc2c1c(=O)[nH]c(=O)n2C	1.5	i	-10%
CCCCNC(=O)CC1N=C2c3ccccc3N=C(SCC(=O)Nc3ccccc3OC)N2C1=O (centres undefined)	-0.82	i	2.4%

COc1ccc(C2C(C#N)=C(N)Oc3cc(C)[nH]c(=O)c32)c(OC)c1OC (centres undefined)
  WNV protease inh: x
  MT1-MMP promoter: i
  Hsc70 ATP site: -0.3%

Cc1ccc(C(c2nnnn2CC2CCCO2)N2CCN(C(=O)c3ccco3)CC2)cc1 (centres undefined)
  WNV protease inh: -0.64
  MT1-MMP promoter: i
  Hsc70 ATP site: -5.0%

O=C(CCNC(=O)c1ccccc1)OCN1C(=O)c2ccccc2C1=O
  WNV protease inh: x
  MT1-MMP promoter: i
  Hsc70 ATP site: -0.1%

O=C(Nc1ccc2c(c1)OCO2)c1ccc(Cl)nc1
  WNV protease inh: x
  MT1-MMP promoter: i
  Hsc70 ATP site: 5.2%

Cc1ccccc1S(=O)(=O)Nc1cccnc1
  WNV protease inh: x
  MT1-MMP promoter: i
  Hsc70 ATP site: 3.5%

CCc1c(C(=O)NCc2ccccc2Cl)[nH]c(C)c1C(C)=O
  WNV protease inh: -0.64
  MT1-MMP promoter: i
  Hsc70 ATP site: 0.5%

Brc1[nH]nc2ccccc12
  WNV protease inh: -0.43
  MT1-MMP promoter: i
  Hsc70 ATP site: 0.4%

Cn1cccc1CNC(=O)Nc1ccc(Cl)cc1
  WNV protease inh: 0.16
  MT1-MMP promoter: i
  Hsc70 ATP site: -2.3%

Cc1ccc(-c2csc(NC(=O)c3cccc(N4C(=O)CCC4=O)c3)n2)o1
  WNV protease inh: -1.1
  MT1-MMP promoter: i
  Hsc70 ATP site: -5.6%

O=C(NC1CCCCCC1)C1CCN(S(=O)(=O)c2cccc3cccnc23)CC1
  WNV protease inh: 0.38
  MT1-MMP promoter: i
  Hsc70 ATP site: 9.2%

Cc1ccc(C)c(Cn2c(=O)c3c(nc4n3CCN4Cc3ccco3)n(C)c2=O)c1
  WNV protease inh: 0.24
  MT1-MMP promoter: i
  Hsc70 ATP site: -0.4%

NC(=O)Nn1c(CCC(=O)O)ccc1-c1ccc(Br)cc1
  WNV protease inh: -0.63
  MT1-MMP promoter: i
  Hsc70 ATP site: 5.3%

CC(C)c1ccc(OCc2nc(-c3ccccn3)no2)c(Br)c1
  WNV protease inh: 0.02
  MT1-MMP promoter: i
  Hsc70 ATP site: -0.1%

O=C(Nc1ccc(-c2noc(-c3cccs3)n2)cc1)c1cccnc1
  WNV protease inh: -0.11
  MT1-MMP promoter: i
  Hsc70 ATP site: 38%

COc1ccc(-c2coc3cc(OC)cc(O)c3c2=O)cc1
  WNV protease inh: x
  MT1-MMP promoter: i
  Hsc70 ATP site: 1.5%

Cn1nnnc1SCC(=O)Nc1c(Cl)cccc1Cl
  WNV protease inh: 0.69
  MT1-MMP promoter: i
  Hsc70 ATP site: 1.3%

COc1ccccc1CN(CC(=O)NCc1ccco1)C(=O)CNS(=O)(=O)c1ccc(C)cc1
  WNV protease inh: 0.06
  MT1-MMP promoter: i
  Hsc70 ATP site: 2.2%

CCC(CC)C(=O)N(c1ccc(F)cc1)C1C=CS(=O)(=O)C1 (centres undefined)
  WNV protease inh: -1.4
  MT1-MMP promoter: i
  Hsc70 ATP site: 3.5%

CSc1nc2ccc(S(=O)(=O)N3CCCCC3)cc2s1
  WNV protease inh: x
  MT1-MMP promoter: i
  Hsc70 ATP site: -0.6%

COc1ccc(Cl)cc1S(=O)(=O)n1ccnc1C(C)C
  WNV protease inh: 0.85
  MT1-MMP promoter: i
  Hsc70 ATP site: 1.6%

Rewritten with values under each structure: part of the list above
Fields – WNV protease inh | MT1-MMP promoter | Hsc70 ATP site
- Cn1nnnc1SCC(=O)Nc1c(Cl)cccc1Cl
  0.69 | i | 1.3%
- Cc1ccc(C)c(Cn2c(=O)c3c(nc4n3CCN4Cc3ccco3)n(C)c2=O)c1
  0.24 | i | -0.4%
- CCC(CC)C(=O)N(c1ccc(F)cc1)C1C=CS(=O)(=O)C1 (centres undefined)
  -1.4 | i | 3.5%
- CSc1nc2ccc(S(=O)(=O)N3CCCCC3)cc2s1
  x | i | -0.6%
- NC(=O)Nn1c(CCC(=O)O)ccc1-c1ccc(Br)cc1
  -0.63 | i | 5.3%

(list continues)
O=C(c1ccc(Br)s1)N1CCN(Cc2ccc3c(c2)OCO3)CC1
  WNV protease inh: 0.52
  MT1-MMP promoter: i
  Hsc70 ATP site: 1.8%

CCc1cccc2c(C#N)cn(CC(=O)NCc3ccco3)c12
  WNV protease inh: -3.9*
  MT1-MMP promoter: i
  Hsc70 ATP site: -0.7%

Cn1c(=O)c2cc(S(=O)(=O)Nc3ccc4c(c3)OCO4)ccc2n(C)c1=O
  WNV protease inh: -0.02
  MT1-MMP promoter: i
  Hsc70 ATP site: -3.8%

COc1ccc(CC(=O)n2c(CC#N)nc3ccccc32)cc1OC
  WNV protease inh: -0.43
  MT1-MMP promoter: i
  Hsc70 ATP site: 0.5%

c1ccc(COc2ccc(OCCCN3CCCCC3)cc2)cc1
  WNV protease inh: x
  MT1-MMP promoter: i
  Hsc70 ATP site: 4.5%

CCN(CC(=O)NC(C)C)Cc1nc2sc3c(c2c(=O)[nH]1)CCC3
  WNV protease inh: x
  MT1-MMP promoter: i
  Hsc70 ATP site: -0.2%

CCOC(=O)N1CCN(S(=O)(=O)c2c(C)nn(C)c2C)CC1
  WNV protease inh: 1.2
  MT1-MMP promoter: i
  Hsc70 ATP site: -5.1%

Cn1c(Cn2c(=O)sc3ccccc32)nnc1SCc1ccccn1
  WNV protease inh: -0.31
  MT1-MMP promoter: i
  Hsc70 ATP site: -1.8%

O=C(Nc1ccc(Cl)cc1)c1cccs1
  WNV protease inh: x
  MT1-MMP promoter: i
  Hsc70 ATP site: 0.5%

Cc1cc(N2CCN(C3CCCCC3)CC2)nc2cccc(O)c12
  WNV protease inh: -0.58
  MT1-MMP promoter: i
  Hsc70 ATP site: 2.8%

Cc1ccc(C)c(N2CCN(C(=O)CCCn3c(=S)[nH]c4cc5c(cc4c3=O)OCO5)CC2)c1
  WNV protease inh: 0.6
  MT1-MMP promoter: i
  Hsc70 ATP site: 5.9%

Cc1ccc(S(=O)(=O)NCCCN2CCOCC2)c(C)c1
  WNV protease inh: 0.98
  MT1-MMP promoter: i
  Hsc70 ATP site: 0.9%

O=C(CCS(=O)(=O)c1ccc(Br)cc1)N1CCN(c2ccc(Cl)cc2)CC1
  WNV protease inh: x
  MT1-MMP promoter: i
  Hsc70 ATP site: 7.6%

COc1cccc(NS(=O)(=O)c2ccc3[nH]cc(C(=O)NCCC(C)C)c(=O)c3c2)c1
  WNV protease inh: -0.55
  MT1-MMP promoter: i
  Hsc70 ATP site: -11%
